Screening data deposited in PubChem by several laboratories.
Vif A3G = inhibitors of Vif binding to APOBEC3G peptide, primary screen, biochemical, TR-FRET, GST-Vif 1-94, biotin-A3G peptide, dose response retest (AID 1117319) | TR-FRET GST-Vif / biotin-A3G peptide binding; higher % means a stronger effect; test concentration not given here; strong numbers were not always called active | inhibition, %, or IC50 in µM where a hit was titrated | actives 0.57% (n = 260,000);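 active means above the screen mean plus three standard deviations and confirmed in dose response; inconclusive means results disagree or hit not tested in dose response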;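 further: Vif residues 1-94 fused to GST binding biotinylated APOBEC3G peptide 110-148; 0% = full assay without inhibitor and 100% = GST in place of GST-Vif; retest series ran down from 100 µM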
LANA-H2A inh = blocks KSHV LANA binding to histone H2A/H2B | actives 0.6% (n = 320,000) | cell-free LANA-H2A/H2B peptide, fluorescence polarization | inhibition, % (test concentration not listed) | AID 2629; in the data active means inhibition mostly above about 10%, no sharp cut-off; inactive means mostly below about 6.7%;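 further: stock transfer was 7.5 nL into about 10 µL; 0% = median of vehicle wells and 100% = median of positive control wells; one replicate is shown; the record names a cut of 25% in any replicate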
Beta2AR agonist = activates human beta-2 adrenergic receptor causing internalization. P07550. Am2.2-beta2AR cells, FAP receptor internalization, flow cytometry; reference of the scale not given here. response, % (no concentration beside the values). actives 0.43% (n = 340,000);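 active means response above a set limit, near 3 SD of response in nonfluorescent compounds, cut at about 42% in these data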;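 further: stock transfer was 100 nL into about 11 µL; a reference agonist was the positive control; negative values mostly stem from fluorescent compounds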
HNF4A DNA FP = change in binding of human HNF4 alpha to DNA | P41235 | HNF4a-FITC DNA binding, fluorescence polarization, 1 h | activity change, % at 10 µM | actives 0.3% (n = 360,000) | AID 1224865; in the data active means activity change above about 30%, passing the limit was not always enough;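 further: controls were the assay level and a saturating level of protein; the project sought stronger binding though the title names inhibitors; some compounds called inactive have numbers as strong as hits; positive values seem to mean higher polarization but the record does not say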
Target sequence (P41235 whole entry, looked up): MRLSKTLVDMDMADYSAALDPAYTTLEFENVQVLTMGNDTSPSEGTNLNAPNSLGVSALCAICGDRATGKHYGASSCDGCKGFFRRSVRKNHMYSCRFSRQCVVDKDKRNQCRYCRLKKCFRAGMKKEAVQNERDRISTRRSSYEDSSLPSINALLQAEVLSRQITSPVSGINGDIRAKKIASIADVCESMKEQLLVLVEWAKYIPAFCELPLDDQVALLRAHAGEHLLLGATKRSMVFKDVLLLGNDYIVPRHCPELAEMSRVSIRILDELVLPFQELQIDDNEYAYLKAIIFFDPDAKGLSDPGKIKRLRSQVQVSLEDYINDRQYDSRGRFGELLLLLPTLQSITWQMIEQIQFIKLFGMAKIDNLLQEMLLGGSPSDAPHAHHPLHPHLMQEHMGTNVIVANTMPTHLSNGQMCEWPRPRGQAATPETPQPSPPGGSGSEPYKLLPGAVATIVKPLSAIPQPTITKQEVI
Ecoli growth = E. coli growth inhibition; actives 0.21% (n = 330,000); OD600 absorbance (test concentration not listed); Escherichia coli growth, OD600, 23 h; hits give low values;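 active means OD600 absorbance below the run mean of sample wells minus 3.6 SD, in any replicate, cut at about 0.56 in these data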;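 further: stock transfer was 300 nL into about 60 µL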
UCH37 inh = human UCH37 deubiquitinating enzyme inhibition. inhibition, % (concentration not given with the values). purified proteasome/UCH37, Ub-AMC cleavage fluorescence. Q9Y5K5. actives 0.33% (n = 330,000). AID 588478;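 active means mean of two replicates above 20%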;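 further: 0% = compound-free wells with enzyme and 100% = wells lacking proteasome; stock transfer was 100 nL into about 20 µL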
Target sequence (Q9Y5K5 whole entry, looked up): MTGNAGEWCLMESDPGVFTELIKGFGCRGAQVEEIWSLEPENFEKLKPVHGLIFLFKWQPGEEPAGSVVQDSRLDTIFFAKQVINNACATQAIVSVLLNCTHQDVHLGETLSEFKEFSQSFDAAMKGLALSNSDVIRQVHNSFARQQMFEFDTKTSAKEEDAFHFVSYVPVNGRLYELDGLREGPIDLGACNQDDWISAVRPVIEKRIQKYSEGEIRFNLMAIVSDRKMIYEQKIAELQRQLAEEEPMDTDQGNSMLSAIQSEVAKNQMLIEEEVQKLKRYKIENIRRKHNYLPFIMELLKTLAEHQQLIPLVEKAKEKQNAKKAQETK
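Material: human UCH37 enzyme supplied as purified proteasome complex. Measure: % inhibition of Ub-AMC cleavage fluorescence. Medium: pH 7.4 Tris-HCl (50 mM) with ovalbumin, ATP-MgCl2, DTT. Times: 30 min preincubation with enzyme, 25 min cleavage at room temperature. Detection: AMC fluorescence intensity at 355/460 nm.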
A1 inh = inhibitors of the anti-apoptotic protein A1, read as caspase activation; caspase activation, % (no concentration beside the values); actives 0.066% (n = 330,000); MEF A1-2A-BIM cells, Caspase-Glo 3/7 luminescence, 3 h; percent of clofoctol response, vehicle zero; AID 2462;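 active means over half of replicate activation scores above 10%, or exactly half above 10 with the replicate mean above 10; inconclusive means replicate mean below 10 yet half the replicates above 10; inactive means over half of replicates below 10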;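 further: wells of about 30 µL received 50 nL stock; many hits fall short of the cut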
Numbers without * were called inactive; i = inactive; u = inconclusive; x = no result given; & = joins results of further samples.

SMILES	Vif A3G	LANA-H2A inh	Beta2AR agonist	HNF4A DNA FP	Ecoli growth	UCH37 inh	A1 inh
CCC(C)Sc1nc2c(c(=O)[nH]c(=O)n2C)n1Cc1ccc(Cl)cc1 (stereo not given)	16%	-8.4	16	-0.5	0.75	0.2	-0.5
COc1ccc(COC(=O)c2n[nH]c3ccccc23)cc1F	0%	-2.4	-2	3.7	0.67	2.3	-0.6
C/C(=N\NS(=O)(=O)c1c(C)cc(C)cc1C)c1ccncc1	0%	3.7	-9	1.3	x	x	0.7
CCCn1c(N)c(C(=O)NS(=O)(=O)c2ccc(C)cc2)c(=O)n(C)c1=O	8%	0.6	-4	-2.0	0.7	1.6	-0.6
CCCCNC(=O)CCCCCn1c(=O)[nH]c2cc(OC)c(OC)cc2c1=O	26%	4.3	-4	3.2	0.72	-13	0.0
CC(C)[C@H](NC(=O)c1cccc(S(=O)(=O)N2CCOCC2)c1)C(=O)Nc1nccs1	-14%	i	-1	3.2	0.69	4.5	0.7
CCc1ccccc1NC(=O)COc1cccc2ccc(C)nc12	0%	4.2	3	3.9	0.64	-0.8	0.5
CCOC(=O)c1cc(-c2ccccc2)n(Cc2cc(CC)no2)n1	x	-0.3	-13	-4.5	0.67	-0.2	-0.1
Cc1cccc(-n2c(O)c(C=Nc3ccc4c(c3)OCO4)c3ccccc3c2=O)n1	22%	0.4	11	4.0	0.71	4.9	0.2
COC(=O)c1cn(CC(=O)Nc2ccc(OC)cc2)c2ccccc12	x	5.8	0	0.8	0.71	3.1	0.7
O=C(Nc1nncs1)c1ccc(S(=O)(=O)c2ccccc2)cc1	2%	-3.4	12	2.2	0.72	2.5	1.1
Cc1cc(=O)c(C(=O)O)c(C)n1-c1ccccc1	-4%	x	8	0.3	0.69	0.6	x
Cc1cccc(CC(=O)NC2CCN(C)CC2)c1	x	-3.7	0	-1.3	0.66	-0.7	1.9
CCN(CC)CCNCC(=O)Nc1ccc(Oc2ccccc2)cc1	u	3.0	-13	-0.2	0.64	1.2	-0.3
O=C(NCc1ccccn1)c1cccc(NS(=O)(=O)c2ccc(Br)cc2)c1	-8%	-0.4	-1	0.6	0.67	1.5	-1.3
CC(C)COC(=O)n1c(=O)oc2ccc(S(=O)(=O)N3CCCCC3)cc21	3%	2.2	10	0.6	0.67	0.8	0.0
CCOC(=O)c1ccc(S(=O)(=O)NNS(=O)(=O)c2ccc(C)cc2)cc1	-6%	-2.6	-2	-2.6	0.7	2.4	-1.4
Cc1ccc(S(=O)(=O)N2CC(O)C2)cc1	x	4.9	2	-0.5	0.7	5.3	0.5
CCOCCCNC(=O)C(NC(=O)Cc1cccs1)c1ccc(C)cc1 (stereo not given)	13%	-3.7	8	0.7	0.71	0.2	0.6
COc1ccc(NC(=O)c2ccc(NC(=O)CSc3nc(N)cc(=O)[nH]3)cc2)cc1	-8%	-5.9	-2	-2.0	0.72	0.8	1.5
CC(CNC(=O)CCn1ccc2cc(S(=O)(=O)N3CCCC3)ccc21)c1ccccc1 (stereo not given)	x	2.5	-8	1.7	0.72	1.7	1.1
NS(=O)(=O)c1ccc(NC(=O)COC(=O)COc2ccc(Cl)cc2)cc1	15%	2.3	5	1.4	0.67	2.4	-0.6
CCOC(=O)CSc1nc2ccccc2c(=O)n1CC	24%	-10	15	-1.4	0.69	0.9	1.3
CCn1c(C)c(C(C)=O)c(N2CCN(c3ccccc3)CC2)nc1=S	u	-3.4	4	9.6	0.71	5.9	-0.3
COc1nc2ccccc2nc1N1CCN(c2ccc(F)cc2)CC1	-7%	3.5	-20	-0.5	0.7	-11	0.5

Following part:
SMILES	Vif A3G	LANA-H2A inh	Beta2AR agonist	HNF4A DNA FP	Ecoli growth	UCH37 inh	A1 inh
CN(C)S(=O)(=O)c1ccc(C(=O)OCCc2ccccc2)cc1	x	-2.3	7	0.5	0.67	4.3	0.1
Cn1cc([N+](=O)[O-])c(C(=O)N/N=C\c2c[nH]c3ccccc23)n1	-10%	4.6	1	3.2	x	x	0.6
O=C(NCCN1CCCCC1)c1cc(Cl)ccc1Cl	x	1.6	0	3.0	0.68	3.6	-0.1
CCOc1ccc(-c2nnn(CC(=O)N3CCCC3)n2)cc1OCC	-11%	0.5	-2	3.4	0.71	2.7	0.8
O=C(c1cc(-c2cccs2)nn1-c1ccccc1)N1CCN(S(=O)(=O)c2ccccc2)CC1	0%	-6.9	22	-1.5	0.71	5.1	-0.2
CC(=O)N1CCCc2cc(S(=O)(=O)NCc3ccc(C)cc3)ccc21	u	3.6	3	1.4	0.79	0.9	-0.2
Cc1ccc(OCc2nnc(SCC(=O)Nc3ccc(N4CCOCC4)cc3)o2)cc1	-5%	-0.4	4	-1.3	0.67	-1.3	0.5
O=C(NCCCN1CCOCC1)c1ccc(Sc2ccccc2Cl)c([N+](=O)[O-])c1	x	3.0	7	2.4	0.67	4.6	-0.7
CC(CNS(=O)(=O)c1ccc2c(c1)NC(=O)CCS2)c1ccccc1 (stereo not given)	-10%	1.0	8	1.4	0.73	2.6	-1.1
CCN(CC)C(=O)N1CCN(S(=O)(=O)c2c(C)cc(C)cc2C)CC1	2%	0.3	3	0.4	0.68	1.8	0.3
O=C(COC(=O)c1ccc(S(=O)(=O)N2CCCC2)cc1)NCCc1ccc(F)cc1	x	-3.3	-6	-0.9	0.71	-3.5	0.2
COC(C/C=C\[C@H](O)[C@H](C)OCc1ccccc1)OC	x	-1.9	2	1.7	x	0.5	0.3
O=C(N/N=C/c1ccc(Cl)cc1)c1sccc1OCc1ccc(F)cc1	1%	1.2	55*	2.9	x	x	0.2
O=C(CCN1C(=O)/C(=C/c2cccs2)SC1=S)Nc1ccc(C(=O)O)c(O)c1	x	-0.1	-1	2.8	0.71	26*	-3.5
Cc1c(-c2ccccc2Br)nc2ccccc2c1C(=O)O	1%	x	2	-2.9	x	x	x
O=S1(=O)C[C@@H](N2CCOCC2)[C@H](N2CCOCC2)C1	-8%	-2.2	-3	-1.8	0.74	-0.6	0.2
O=C(NCc1ccc(Cl)cc1)c1ccc(CNc2c(N3CCOCC3)c(=O)c2=O)cc1	x	4.9	4	4.8	0.71	1.0	0.9
CN(C/C(O)=C(\C#N)c1ccccc1)C1CCCCC1	0%	0.4	2	2.2	0.76	6.3	-0.7
Cc1nc2sc3c(c2c(=O)o1)CCCC3	u	-1.5	-5	2.0	0.78	-2.3	0.2
COc1ccccc1OCC(=O)Nc1nc(C)c(C)s1	x	0.7	10	2.2	0.65	4.7	-5.5
O=C(O)C(C=C(Cl)Cl)N1CCOCC1 (stereo not given)	-4%	x	4	0.2	0.66	3.8	x
O=C(NCCc1ccccc1)C1CCN(C(=O)NCc2ccccc2)CC1	-9%	-3.1	-2	5.5	0.67	4.0	-0.3
CCOC(=O)c1c(NC(=O)CN2C(=O)NC3(CCCCCC3)C2=O)sc(C)c1-c1ccc(C)cc1	-17%	-0.6	8	0.1	x	x	0.9
CCOC(=O)C1=C(C)NC(=O)NC1c1ccccc1Cl (stereo not given)	-11%	-1.8	-2	4.1	0.69	3.1	0.8
Cc1cc([N+](=O)[O-])nn1Cc1noc(C(=O)NCc2ccc3c(c2)OCO3)n1	x	0.7	-3	-2.0	0.67	5.1	-0.3

Arranged by molar mass (largest number first): part of the list above
SMILES	Vif A3G	LANA-H2A inh	Beta2AR agonist	HNF4A DNA FP	Ecoli growth	UCH37 inh	A1 inh
CCN(CC)C(=O)N1CCN(S(=O)(=O)c2c(C)cc(C)cc2C)CC1	2%	0.3	3	0.4	0.68	1.8	0.3
CN(C)S(=O)(=O)c1ccc(C(=O)OCCc2ccccc2)cc1	x	-2.3	7	0.5	0.67	4.3	0.1
CCOC(=O)C1=C(C)NC(=O)NC1c1ccccc1Cl (stereo not given)	-11%	-1.8	-2	4.1	0.69	3.1	0.8

(more compounds)
SMILES	Vif A3G	LANA-H2A inh	Beta2AR agonist	HNF4A DNA FP	Ecoli growth	UCH37 inh	A1 inh
CC(=O)Nc1ccc(S(=O)(=O)N2CCC(NC(=O)C(Cc3ccccc3F)NC(C)=O)CC2)cc1 (stereo not given)	x	x	4	3.2	0.7	1.2	x
C/C(=N\NC(=O)Cn1ccc(C(F)(F)F)n1)c1ccc2c(c1)OCO2	-1%	1.1	2	-2.9	x	x	0.6
CCCOc1ccc(-c2c(C(=O)N/N=C/C3CCCCC3)nnn2-c2nonc2N)cc1	x	0.4	0	2.7	x	x	-1.4
CCOc1c(Br)cc(/C=C2/SC(=O)N(CC(=O)N3CCCC3)C2=O)cc1OC	u	-4.3	3	0.2	x	x	-0.7
O=C(c1ccsc1)N1CCCC(N2CCOCC2)C1 (stereo not given)	x	0.5	-2	1.2	0.65	1.1	0.8
CCn1c(SCC(=O)Nc2ccccc2C)nnc1-c1ccccc1O	0%	-1.3	-6	1.3	0.64	1.2	0.3
Cc1ccc(S(=O)(=O)N(CC(=O)Nc2ccccc2C(=O)O)c2cccc(Cl)c2C)cc1	-4%	-0.9	-3	0.2	0.65	-2.7	-0.6
O=c1c2ccccc2nnn1CSc1nc2sc3c(c2c(=O)n1CC1CCCO1)CCC3 (stereo not given)	10%&2%	-3.6	-11	-7.0	0.75	2.9	0.9
O=C(CSc1ccc(-c2ccccc2)nn1)N1CCCc2ccccc21	x	-5.3	-21	2.5	0.69	2.3	0.9
Cc1ccc(S(=O)(=O)NCC(=O)N(CC(=O)NCc2ccco2)Cc2cccs2)cc1	0%	-0.9	-3	1.5	0.69	-0.6	0.1
Cc1ccc(S(=O)(=O)N2CCOCC2)cc1C(=O)NNC(=O)c1ccoc1C	4%	-11	-4	-5.1	0.66	2.4	0.3
COc1cccc(OC)c1NC(=O)C1CCCN1C(=O)Nc1ccccc1Cl (stereo not given)	x	x	9	-0.4	0.66	0.2	x
O=C(COC(=O)c1ccc(O)cc1)Nc1ccc2c(c1)OCCO2	-3%	8.2	2	-1.8	0.64	1.0	-1.0
CCCCCCc1cc2cc(S(=O)(=O)c3ccc(Cl)cc3)c(=O)oc2cc1O	x	-4.5	5	5.2	0.8	-299	0.3
COc1ccc(CCC(=O)NCc2cnn(C)c2)cc1	-1%	0.4	9	-0.8	0.75	3.4	0.0
O=C(NCC1CCCC(CNC(=O)N2CCc3ccccc32)C1)N1CCc2ccccc21 (stereo not given)	13%	1.8	4	1.1	0.7	5.9	0.5
CCc1ccc(NC(=O)[C@H](Cc2c[nH]c3ccccc23)NC(=O)[C@@H]2Cc3ccccc3CN2)cc1	x	0.2	2	1.1	0.65	-1.8	-2.4
Cc1c(C2(O)CCCCC2)[nH]c2cnccc12	x	4.6	-8	-3.0	0.68	-97	0.9
CC(=O)n1nc2nc(C)cc(C)c2c1N	19%	4.8	9	-1.4	0.71	2.7	3.3
Brc1cc2[nH]cnc2c2ccccc12	-5%	-1.9	6	0.7	0.64	6.0	0.2
COC(=O)Nc1ccc(S(=O)(=O)N2CCCc3ccccc32)cc1	3%	1.3	8	0.3	0.73	0.3	0.7
C=CCN1CCN(C(=O)c2c(-c3ccccc3)noc2C)CC1	x	6.1	10	-0.1	0.72	0.0	-0.4
COc1ccc(NS(=O)(=O)c2ccc3oc(SCC(N)=O)nc3c2)cc1	x	-0.6	0	0.6	0.68	5.7	0.2
COc1ccc2nc(/N=C\N(C)C)sc2c1	0%	-5.3	0	-1.1	x	x	0.1
OCC1(Cc2ccc(Cl)cc2)CCN(Cc2ccc3nsnc3c2)CC1	5%	-3.4	5	2.6	0.65	0.2	0.8
Cc1cc(C(=O)CN2C(=O)NC3(CCCC3)C2=O)c(C)n1-c1ccc2c(c1)OCO2	12%	-1.4	-2	-1.8	0.73	1.3	0.3
N#CCN1CCN(CC(=O)Nc2ccc(OCc3ccccc3)cc2)CC1	-3%	-1.3	42*	0.9	0.72	6.0	-0.2
